# Screening data as filed in PubChem BioAssay.
# MgrA-DNA mod – S. aureus MgrA activity modulators, primary screen, biochemical, S. aureus Newman, fluorescence polarization | AID 602314, 2012 | 84,000 tested, 0.13% active | MgrA-DNA binding | inhibition, %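 (about 10 µg/mL by stock and volumes)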;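 active means above 50% in either of two replicates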;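 further: 0% = protein plus DNA without compound and 100% = DNA alone without protein; higher means less MgrA bound to DNA so lower polarization; one replicate is shown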
# Sa helicase inh – inhibitors of S. aureus replicative helicase, primary screen, biochemical, fluorescence unwinding readout | replicative DNA helicase (DnaC/DnaB), Staphylococcus aureus | purified S. aureus helicase, fluorescence unwinding assay; about half of the hits fall short of the stated cut | inhibition, %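 (tested at about 80 µM)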 | 120,000 tested, 0.05% active | AID 485395, 2010;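 active means both duplicates at 50% or more, or one of them with a favoured structure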;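 further: 0% = mean of negative control wells and 100% = mean of positive control wells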
# An asterisk follows results filed as active; x = no result given. This is a subset; the hit share may differ from the screen's.
SMILES,MgrA-DNA mod,Sa helicase inh
CC(Sc1nncs1)C(=O)NC(C)c1ccccc1 (stereo unspecified),x,-13
CCN(CC)C(=O)c1cccc(S(=O)(=O)N(C)C)c1,-2.0,4
COc1ccc(S(=O)(=O)N2CCN(C(=O)/C=C/c3ccccc3)CC2)cc1,-0.6,6
CC(C)CNS(=O)(=O)c1ccc(CCC(=O)N2CCN(c3ccccc3)CC2)cc1,0.6,-21
Cc1nn(Cc2ccccc2)c(C)c1C(=O)NS(=O)(=O)c1ccccc1Cl,x,8
COC(CN(C)C(=O)c1cn(C)c2ccc(S(=O)(=O)N3CCC(C)CC3)cc2c1=O)OC,x,-13
COC(=O)c1c(NC(=O)C(C)(C)C)csc1C,0.2,x
CCCC1=C(c2ccccc2)C(=O)NC1,-2.0,x
CCn1c(SCC(=O)NN2CC(=O)N(c3ccc(F)cc3)CC2=O)nnc1-c1cccs1,x,19
Cc1ccc(NC(=O)CS(=O)CC(=O)Nc2ccc(N3CCOCC3)cc2)cc1Cl (stereo unspecified),5.8,-1
CSc1nn2c(C)cc(C)nc2c1C#N,0.6,x
Cc1cc(=O)c(C(=O)Nc2ccc(N3CCOCC3)cc2N2CCOCC2)nn1-c1ccc(Cl)cc1,x,-3
O=[N+]([O-])c1c(C(F)(F)F)cc(-c2cc(C(F)(F)F)cc(C(F)(F)F)c2)cc1C(F)(F)F,-1.5,x
O=C(CSc1nc2ccccc2nc1N1CCCCC1)N1CCN(c2ccc(Cl)cc2)CC1,x,32
CSc1cccc(NS(=O)(=O)c2ccc3c(c2)OC(C)CN3C(C)=O)c1 (stereo unspecified),-0.3,3
Cc1cc(C)c(C(=O)C2CCN(C(=O)c3cccs3)CC2)c(C)c1,0.1,x
CSc1sc(C(=O)O)c(Cl)c1S(=O)(=O)C(C)C,-1.8,x
CC(=O)Nc1cc2cc(NC(=O)c3c(-c4c(Cl)cccc4Cl)noc3C)ccc2oc1=O,0.9,x
CCCc1nc2c3ccccc3[nH]c(=O)n2n1,x,-31
Cc1cc2nnc(SCC(=O)Nc3ccc(S(N)(=O)=O)cc3)n2c2ccccc12,-2.1,x
COc1ccccc1OCC#CCN1CCCc2ccccc21,1.8,9
CC(=O)N1CCOc2cc(S(=O)(=O)N3CCCCC3)ccc21,-0.4,-1
COc1ccc(C2(CNC(C)=O)CCOCC2)cc1OC,0.2,-6
[S-]c1n[n+]2c(-c3ccccc3)cc(-c3ccccc3)nc2s1,5.1,-2
CCN(Cc1cc2ccccc2[nH]c1=O)c1ccc(OC)cc1,x,-19
CCOC(=O)C1CCCN(C(=O)S(=O)(=O)c2ccc(-c3ccccn3)s2)C1 (stereo unspecified),-0.9,x
Cc1ccc(COc2ccc(C)nc2[N+](=O)[O-])cc1,-0.8,x
Cc1ccc(NC(C(N)=O)c2c(C)[nH]c(=O)[nH]c2=O)cc1 (stereo unspecified),x,1
Cc1cc(C)c2c(CC(=O)N3CCCc4ccccc43)coc2c1,1.2,1
COc1ccc(NC(=O)C2CCCCC2)c2ccccc12,x,5
O=C(Nc1ncccn1)c1cccc(F)c1,-2.3,4
NC(=O)CSc1nnc(-c2ccc(S(=O)(=O)N3CCCC3)cc2)o1,-0.4,18
O=C(CCN1CCOCC1)c1ccc(F)cc1,-9.1,x
COC(=O)/C(=C/c1ccco1)NC(=O)c1ccccc1,1.4,20
CCc1c(C)nc2ncnn2c1Nc1cc(Cl)c(OC)cc1OC,x,39
O=C(NCCCNC(=O)c1c(F)cccc1F)c1c(F)cccc1F,1.1,x
O=C(CSc1ccccc1)NN1C(=O)c2ccccc2C1=O,1.6,-3
COc1ccc(-c2nc(CS(=O)CC(=O)NCC3CCCO3)c(C)o2)cc1 (stereo unspecified),5.9,18
CC(C)N1CC(O)=C(c2nc(-c3ccc(F)cc3)cs2)C1=N,x,0
CCOC(=O)c1cnc(Nc2nc3ccccc3o2)nc1C,x,-25
COc1ccc(C2CC(=O)NC(SCC(=O)OC(C)C)=C2C#N)cc1OCc1ccccc1 (stereo unspecified),-2.0,x
CCc1ccc(NC(=O)c2ccnc(-n3cnnc3)c2)cc1,-3.6,3
Cc1ccc(C(=O)c2oc3ccccc3c2NC(=O)c2ccco2)cc1,-1.9,7
Cc1ccc(CC(=O)NC(C)C(C)(C)C)cc1 (stereo unspecified),-1.1,0
Cc1ccc(CSc2nc3cnn(C)c3c(=O)n2Cc2ccccc2)cc1,x,8
CSc1nc(-c2ccccn2)nc(N)c1C#N,-1.4,x
CC(C)C(=O)Nc1ccc(-c2nc3ccc(NC(=O)C(C)C)cc3[nH]2)cc1,-2.2,16
CCSC(SCC)[C@@H](O)[C@H](O)[C@H](O)[C@@H](O)CO,-2.3,x
CCn1c(SCCC#N)nnc1-c1ccncc1,0.8,-1
Cc1cccc(N2CCN(CCNC(=S)Nc3c(C)cccc3C)CC2)c1C,-0.7,-7
CCCC(C)C(=O)Nc1nnc(Cc2ccc(OC)cc2)s1 (stereo unspecified),-1.4,7
CN(Cc1cn(-c2ccccc2)nc1-c1ccc(Cl)cc1)C(=O)CCc1ccco1,x,5
COc1ccc2cc3cc(C(=O)NCC4CCN(Cc5cccc(C)c5)CC4)oc3nc2c1,x,-28
CC(=O)NCCCc1nc2ccccc2n1Cc1ccccc1Cl,x,20
Cc1ccc(N=Cc2ccc3ncccc3c2)c(F)c1,-1.5,-7
CCOC(=O)c1c(NC(=O)c2c(Br)cnn2C)c(C#N)nn1-c1ccccc1,x,-12
O=c1c2nnn(-c3ccc(Cl)cc3)c2ncn1CCN1CCCCC1,x,2
N/C(=N\C(=S)Nc1ccccc1)N1CCOCC1,3.2,x
Cc1[nH]n(-c2ccccc2)c(=O)c1C=Nc1cc(C(C)(C)C)cc(C(C)(C)C)c1O,-0.8,x
O=C(O)COc1ccccc1O,-1.8,-22
# Later entries.
SMILES,MgrA-DNA mod,Sa helicase inh
CC(C)NC(=S)N(CCc1ccncc1)C(C)C,0.9,4
Cn1c(=O)c2sccc2n2c(CCCC(=O)NCc3ccc4c(c3)OCO4)nnc12,x,7
CCOC(=O)C1CC(CC2OCCO2)=NO1 (stereo unspecified),0.8,-8
CCOC(=O)c1c(NC(=O)COC(=O)C2CCC(=O)N2)sc2c1CCCC2 (stereo unspecified),x,-12
COc1ccc(Br)cc1CNC(=O)C1CCCN(c2nc3ccccc3o2)C1 (stereo unspecified),0.0,-16
CCC(C)NC(=O)CSc1cc(=O)n(C)c2ccccc12 (stereo unspecified),x,-31
Cc1ccc(-c2csc3nc(CNCCN(C)C)[nH]c(=O)c23)cc1,x,28
C=CCOc1c(Br)cc(CNCCCN2CCOCC2)cc1OC,-0.6,0
C=CCNC(=O)C1CC(=O)N(c2ccc(OCC(=O)Nc3cc(C)cc(C)c3)cc2)C1 (stereo unspecified),-3.6,9
Cc1ccc(S(=O)(=O)c2nc(S(=O)(=O)c3ccc(C)cc3)c(NCc3ccco3)s2)cc1,0.8,4
O=C(c1ccco1)N1CCn2c1nc1ccccc12,x,-10
CCOC(=O)c1nn(-c2ccc(Cl)cc2)c(=N)c(C#N)c1C,2.1,x
FC(F)(F)c1cc(-c2nccs2)nc2cc(C3CC3)nn12,-0.1,x
COCCN=c1scc(-c2ccco2)n1/N=C/c1ccc(OC)cc1,x,11
CCOC(=O)N1CCN(C(=O)c2ccc3c(c2)sc2nc(-c4ccc(OC)cc4)cn23)CC1,-0.3,11
CC(=O)OCc1ccc(/C=C(\C#N)S(=O)(=O)c2ccc(Cl)cc2)o1,2.4,x
Cc1ccc(-c2nnc(-c3cc4c(ccc5ccccc54)oc3=O)o2)cc1,x,9
CCN(CC)c1nc(N)c2c(N)nc3c(c2c1C#N)CC(c1ccccc1)O3 (stereo unspecified),x,35
CN(CCC#N)S(=O)(=O)c1ccc2[nH]cc(C(=O)O)c(=O)c2c1,0.9,12
Cc1cccc(N2CCN(C(=O)CN3C(=O)c4ccccc4C3=O)CC2)c1C,0.1,-1
CC(C)(C)NC(=O)CSc1nc(C(F)(F)F)cc(=O)[nH]1,x,10
COc1ccccc1-c1coc2cc(OCC(=O)OCC(C)C)ccc2c1=O,2.0,10
O=C(/C=C/c1ccccc1)NCC1COc2ccccc2O1 (stereo unspecified),3.2,-5
CC(C)C(=O)n1nc(-c2cccnc2)nc1NCc1cccs1,2.2,-1
NC(=O)C1CCN(CC(O)COc2ccc(Br)cc2)CC1 (stereo unspecified),-0.9,x
COc1ccc(COC(=O)C2=C(C)NC3(O)c4ccccc4C(=O)C23O)cc1 (stereo unspecified),-0.7,17
Cc1cc(SCC(=O)NN2CCOCC2)nc(C(C)C)n1,x,5
CC(C)c1cc(C(=O)O)on1,-0.3,-18
O=c1oc(-c2ccco2)nc2sc3c(c12)CCCC3,x,7
CCN(CC)c1cc(CS(=O)c2ccccc2)nc(-c2ccccc2)n1 (stereo unspecified),0.3,x
COc1ccc(C2=CSC3=NS(=O)(=O)CCN23)cc1Cl,x,7
COc1cc(Nc2cnn(-c3nc4ccccc4s3)c(=O)c2Cl)cc(OC)c1,-0.6,12
CC(C)=NNC(=O)C(NC1CCCCC1)c1ccccc1 (stereo unspecified),x,-16
O=S(=O)(CCSc1nccc(-c2cccs2)n1)c1ccc(F)cc1,0.1,x
O=C(O)CCCC(=O)Nc1nc2ccccc2[nH]1,x,-11
CCOC(=O)c1c(Cl)c(C(C)(C)C)nc(Sc2ccccn2)c1C#N,-1.8,x
COc1ccccc1N(CC(=O)NCC1CCCO1)S(=O)(=O)c1ccc(C)cc1 (stereo unspecified),1.6,8
O=C1CCCc2nc3nc4ccccc4n3cc21,2.5,-21
O=C(/C=C/c1ccccc1)Nc1cccnc1,x,-9
COc1ccc(NC(=O)N2CC(C)OC(C)C2)c(OC)c1 (stereo unspecified),-1.2,10
Cc1nc(-c2ccc(Oc3ncc(C(F)(F)F)cc3Cl)cc2)no1,-0.9,x
CC(=O)NC1CC2CCCC(C1)N2S(=O)(=O)c1ccccc1 (stereo unspecified),-2.4,-3
CC(N=Cc1nc2ccccc2n1C)C12CC3CC(CC(C3)C1)C2 (stereo unspecified),1.0,11
COc1ccc(O)c(/C=N/NC(=O)c2ccn(Cc3ccc(Cl)cc3)n2)c1,2.4,-4
NC(=O)Cn1cc(C(=O)C2CC2)c2ccccc21,x,15
Cc1ccc(Cn2nccc2NC(=O)c2cccnc2Sc2ccccc2)o1,x,-10
COc1ccc(-c2nc(CS(=O)CC(=O)NC(C)c3ccccc3)c(C)o2)cc1OC (stereo unspecified),-1.1,4
O=C(COC(=O)c1cc(Br)ccc1O)NCc1ccccc1,0.4,1
N#Cc1ccc(CSc2nnc(-c3cccs3)n2-c2ccccc2)cc1,-2.5,8
Cc1cc(C)n2c(nc(=O)c3ccccc32)c1C#N,x,-57
O=C(C1CCCN(S(=O)(=O)c2ccc3nc(-c4ccccc4)[nH]c3c2)C1)N1CCc2ccccc21 (stereo unspecified),x,-17
COc1ccc(CCNC(=S)Nc2ccc(Br)c(C)c2)cc1OC,2.7,x
CC(C)Nc1nc(NC(C)C)nc(Oc2ccc(=O)[nH]n2)n1,x,-24
NC(=O)c1ccsc1NC(=O)c1cc(-c2ccccc2)nc2ccccc12,x,4
c1ccc2c(c1)nc1n2CCC1,3.4,-2
O=C(NCC(O)c1ccccc1)Nc1ccc2c(c1)CCO2 (stereo unspecified),x,4
[N-]=C=C1C(=O)N(CCc2ccccc2)C(=O)[C@H]([n+]2ccccc2)[C@H]1c1ccc(Cl)cc1,6.8,13
CC1[N+](=O)C(c2ccccc2)=C(c2ccccc2)N([O-])C1(C)C (stereo unspecified),2.8,4
CSc1nsc(SCC(=O)OC2CC3CCC2(C)C3(C)C)n1 (stereo unspecified),x,21
CC(C)OC(=O)/C(C#N)=C/c1ccco1,x,-310
O=C(/C=C/c1ccccc1)Nc1nccs1,x,-5
CCOc1cc(C=C2C(=O)N(C)C(=O)N(C)C2=O)ccc1OCCOc1ccccc1,-0.7,x
CCOC(=O)c1c(CSc2ccccc2)n(C)c2cc(Br)c(O)c(CN(C)C)c12,-1.0,x
